NS1 inh – qHTS Assay for Inhibitors of Influenza NS1 Protein Function. S. cerevisiae slowed by influenza A NS1, growth recovery by OD600. Potency, µM (series often up to 46.1 µM), for the others: top-dose activity, positive = more growth. actives 0.4% (n = 270,000); further: actives are rising curves; nearly all actives have a fitted effect of over 50% in size
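S. cerevisiae expressing influenza A NS1, grown in glucose, washed, then diluted 1:100 into pH 6.0 -URA galactose medium with 23 nl compound. Growth recovery read as OD600; NS1-free strain serves as control.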
Cruzain inh Det – qHTS Assay for Promiscuous and Specific Inhibitors of Cruzain (with detergent). Cruzipain (Trypanosoma cruzi), P25779. Potency, µM, without a hit: max response, negative = inhibition, hits mostly inhibitors. actives 0.43% (n = 200,000). AID 1478, 2009. purified cruzain, Z-FR-AMC fluorescence, 0.01% Triton; active means well fitted curve in the direction sought with a large enough effect; inconclusive means small, poorly fitted or top-dose-only effect, or another doubt; inactive means no such curve, though single readings can be large; an effect the other way counts as inactive or inconclusive;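 further: plate controls were neutral wells for no effect and buffer without enzyme for full effect; nearly all actives have a fitted effect of over 40% in size; top concentration of the series not given in the record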
Target sequence (P25779 123-467 limits assumed): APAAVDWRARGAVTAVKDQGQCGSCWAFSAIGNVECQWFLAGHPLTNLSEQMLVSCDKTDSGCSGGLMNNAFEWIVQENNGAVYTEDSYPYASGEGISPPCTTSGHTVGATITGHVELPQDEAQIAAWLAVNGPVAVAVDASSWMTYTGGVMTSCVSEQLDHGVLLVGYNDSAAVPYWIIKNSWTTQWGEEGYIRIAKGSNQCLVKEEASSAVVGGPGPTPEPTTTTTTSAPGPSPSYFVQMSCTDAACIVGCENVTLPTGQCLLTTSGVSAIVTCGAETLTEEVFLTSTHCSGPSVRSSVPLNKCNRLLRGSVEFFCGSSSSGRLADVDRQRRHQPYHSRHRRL
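Cysteine protease activity tested under reducing, mildly acidic conditions (100 mM sodium acetate pH 5.5, 5 mM DTT) plus 0.01% Triton X-100. Cruzain 1.5 nM; substrate Z-FR-AMC 2 uM; 15 min compound preincubation at room temperature.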
SARS PLpro yeast – qHTS of Yeast-based Assay for SARS-CoV PLP; S. cerevisiae expressing SARS-CoV PLpro, growth rescue; control for the full effect not named in the record; actives 0.19% (n = 330,000); Potency, µM (highest dose often 32.9 µM), for the others: at the highest dose activity, positive = growth rescue; AID 485353, 2010; further: 0% is about no effect; nearly all actives have a fitted effect of over 55% in size; growth read by luminescence after 48 h
LASV entry inh – qHTS for Inhibitors of binding or entry into cells for Lassa Virus; actives 1.2% (n = 300,000); Lassa virus pseudotype entry inhibition, cell reporter; control for the full effect not named in the record; Potency, µM (top dose mostly 37.9 µM), for inactives: at the highest dose activity change, negative = inhibition, usual class: inhibitors; active means well fitted inhibition curve with a large enough effect; inconclusive means small, poorly fitted or top-dose-only effect, or effect the other way; inactive means flat fitted curve, though single readings scatter; tested in HEK293 cells; further: on the % scale 0 is the no-effect control and ±100 the full control effect; nearly all actives have a fitted effect of over 50% in size; luciferase read-out
Cruzain inh noDet – qHTS Assay for Promiscuous and Specific Inhibitors of Cruzain (without detergent) | Cruzipain (Trypanosoma cruzi), P25779 | purified cruzain, Z-FR-AMC fluorescence, no detergent | Potency, µM, for the others: max response, negative = inhibition, usual class: inhibitors | actives 2.3% (n = 200,000) | AID 1476, 2009; active means well fitted curve in the direction sought with a large enough effect; inconclusive means small, poorly fitted or top-dose-only effect, or another doubt; inactive means no such curve, though single readings can be large; an effect the other way counts as inactive or inconclusive;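 further: plate controls were enzyme without inhibitor for no effect and buffer without enzyme for full effect; nearly all actives have a fitted effect of over 40% in size; top concentration of the series not given in the record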
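Purified cruzain at 1.5 nM, pre-incubated 15 min with compound at room temperature in 100 mM sodium acetate pH 5.5, 5 mM DTT, 0.00005% Triton X-100. Reaction started with 2 uM Z-FR-AMC; AMC fluorescence increase over 60 s gives rate.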
MARV entry inh – qHTS for inhibitors of binding or entry into cells for Marburg Virus | Potency, µM (series often up to 37.8 µM), without a hit: at the top dose activity change, negative = inhibition, most hits filed as inhibitors | Marburg virus pseudotyped entry inhibition, cell reporter; control for the full effect not named in the record; about a third of the inactives were read at about 46 µM | actives 1.8% (n = 300,000); active = well fitted inhibition curve with a large enough effect; inconclusive = small, poorly fitted or top-dose-only effect, or effect the other way; inactive = flat fitted curve, though single readings scatter; tested in HEK293 cells; about a fifth of its hits are not listed in these tables; further: on the % scale 0 is the no-effect control and ±100 the full control effect; luciferase read-out
2A StopGo – High Throughput Screening for Foot and Mouth Disease Virus Antivirals | Potency, µM (series often up to 57.9 µM), inactives show at the highest dose signal change, negative = less light | AID 1159524, 2015 | human cells with a luciferase reporter of 2A StopGo recoding; control for the full effect not named in the record | actives 1.2% (n = 410,000); active = well fitted falling curve with a large enough effect; inconclusive = small, poorly fitted or top-dose-only effect; inactive = no such curve, though single readings can be large or run the other way; tested in HEK293T cells; further: on the % scale 0 is the no-effect control and ±100 the full control effect; nearly all actives have a fitted effect of over 45% in size; luciferase light after 4 h
RE007 growth inh – qHTS Assay for Inhibitors of the HIV-1 protein Vpr. Potency, µM (titrated, usually from 92.2 µM), inactives show at the top dose activity change, negative = less growth. S. pombe RE007 Vpr strain, BacTiter-Glo ATP luminescence, 24 h; control for the full effect not named in the record. actives 0.21% (n = 360,000). AID 651644, 2012; active = well fitted falling curve with a large enough effect; inconclusive = small, poorly fitted or top-dose-only effect; inactive = no such curve, though single readings can be large or run the other way;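 further: on the % scale 0 is the no-effect control and ±100 the full control effect; nearly all actives have a fitted effect of over 50% in size; the assay follows cell death caused by Vpr and the record does not say whether a fall means rescue or toxicity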
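Fission yeast strain RE007, carrying one chromosomally integrated HIV-1 vpr copy, was seeded at OD 0.01 in PMG+AL medium with 23 nL pinned compound. After 24 h at 30 °C and 99% humidity, viability was read by BacTiter-Glo luminescence.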
* = called active by the depositor; ? = inconclusive; · = not tested or not shown; [ ] = another dose, or the depositor's remark. Unless noted, the call rests on the fitted dose curve; in most records, active means well fitted rising curve with a large enough effect; inconclusive means small, poorly fitted or top-dose-only effect; inactive means no such curve, though single readings can be large or run the other way. Potency means the concentration at half of the fitted maximal effect.

SMILES	NS1 inh	Cruzain inh Det	SARS PLpro yeast	LASV entry inh	Cruzain inh noDet	MARV entry inh	2A StopGo	RE007 growth inh
CCOC(=O)C1CCCN(S(=O)(=O)c2c(C(=O)N3CCCCC3)c(C)n(C)c2C)C1 (centres undefined)	-3.3%	·	3.2%	-0.2%[46.1 µM]	·	24.0%[46.1 µM]	6.2%	-5.1%
CCc1cc(C(=O)Nc2sc(C)c(CC)c2C#N)no1	·	-10.8%	·	-2.1%[46.1 µM]	-6.7%	15.9%[46.1 µM]	32.9%[activator]	·
CC1(C)Cc2c(ccc3ccccc23)C(=O)N1	-9.6%	-0.4%	-6.8%	?	3.3%	1.6%	18.0%	-1.3%
CC1=Nc2ccccc2N=C(NC(=O)c2ccccc2)C1c1ccccc1 (centres undefined)	-1.1%	·	-2.1%	-4.7%	·	?	14.5%	-8.6%
Cc1ccc(/C=C2\SC(=S)N(Cc3ccccc3)C2=O)o1	-1.3%	-12.6%	-1.1%	?	?	20.2%	6.4%	3.7%
c1ccc(Cn2cc(CNc3ccccc3)nn2)cc1	-4.2%	·	-4.9%	·	·	·	29.5%	?
Cc1ccc(S(=O)(=O)NNC2CC(=O)N(c3ccc(Br)cc3)C2=O)cc1 (centres undefined)	-0.1%	·	-1.0%	·	·	·	-18.3%	1.8%
O=C(COc1ccc(F)cc1Cl)N(Cc1nnc(-c2ccccc2Cl)o1)C1CC1	·	·	·	-2.2%	·	-3.9%	5.0%	4.5%
COC(C(=O)Nc1ccnn1C1CCN(Cc2ccc(C)s2)CC1)c1ccccc1 (centres undefined)	5.3%	·	-1.6%	·	·	·	-12.0%	-1.9%
NC(=NC(=O)c1ccc(OC(F)(F)F)cc1)c1ccc(C(F)(F)F)cn1	0.7%	·	-0.1%	12.4%	·	11.3%	-1.5%	6.4%
COc1ccc(C2=Nc3ccc(OC(F)(F)F)cc3NC(c3cccnc3)=N2)cc1	·	-8.5%	·	0.0%[46.1 µM]	16.0%	-3.8%[46.1 µM]	-19.7%	·
COc1ccc(-c2nc(NC(=O)CSCCO)sc2C)cc1	·	·	0.9%	1.6%	·	13.1%[46.1 µM]	11.8%	-10.6%
C=CCOc1c(Br)cc(/C=C2/NC(=S)N(C(C)=O)C2=O)cc1OC	·	·	-3.5%	5.7%	·	-19.1%[46.1 µM]	18.8%	7.4%
CC(NC(=O)Nc1cccc(Cl)c1)C(c1cccs1)N1CCCC1 (centres undefined)	35.1%	4.7%	26.6%	1.7%[46.1 µM]	8.1%	?	-1.7%	-6.4%
CCC1=C(OC(=O)N(CC)CC)N2C(=O)OC(=NCC(=O)OC)[C@]2(Cc2ccccc2)[C@H]2C1=CC[C@H]1C(=O)N(C)C(=O)[C@H]12	-6.0%	2.5%	-0.1%	·	?	·	-17.3%	-13.9%
CCCSc1nc2ccsc2c(=O)n1CC	·	·	-1.6%	14.4%[46.1 µM]	·	-10.9%[46.1 µM]	-22.1%	11.7%
CCOc1ccc(N2CC(C(=O)N3CCN(c4ccccn4)CC3)CC2=O)cc1 (centres undefined)	·	·	-0.1%	25.6%	·	-3.5%	-8.6%	5.2%
O=C(COC(=O)Cn1cnc2ccccc21)Nc1cc(S(=O)(=O)N2CCOCC2)ccc1Cl	-5.5%	·	-1.1%	23.0%	·	28.3%[46.1 µM]	-9.5%	10.4%
COc1ccc(N(C(=O)c2cnccn2)C(C(=O)NCc2ccccc2)c2ccc(O)cc2)cc1 (centres undefined)	3.4%	·	-0.6%	·	·	0.1%[46.1 µM]	83.0%[activator]	-13.1%
Cn1c(SCc2ccc(C#N)cc2)nnc1-c1cccc(Cl)c1	-7.2%	1.8%	-1.5%	-1.8%	1.3%	-23.9%	3.0%	0.4%
COc1ccccc1NC(=O)C1CCN(S(=O)(=O)c2ccc3c(c2)CC(C)N3C(C)=O)CC1 (centres undefined)	-9.0%	·	2.8%	12.4%[46.1 µM]	·	-1.8%[46.1 µM]	-14.1%	-7.3%
Cc1cc(NC(=O)CSc2nnc(Cc3ccccc3)o2)no1	5.4%	4.3%	-1.2%	-2.0%	-2.9%	2.0%	-9.4%	17.1%
COc1ccc(-c2csc(NC(=O)CSc3nc(SC)ns3)n2)cc1	8.2%	-5.8%	-27.2%	0.1%	?	-3.1%	?	-4.1%
C/C(=C\c1ccccc1)C(=O)n1nnc2ccccc21	-18.8%	2.8%	-3.7%	?	-1.5%	9.0%	-17.2%	-8.7%
COC(=O)c1c(NC(=O)CSc2nnnn2-c2ccccc2)sc2c1CCCC2	14.5%	-1.0%	1.4%	1.2%	?	-28.0%	-21.6%	16.8%
SMILES	NS1 inh	Cruzain inh Det	SARS PLpro yeast	LASV entry inh	Cruzain inh noDet	MARV entry inh	2A StopGo	RE007 growth inh
Cc1cccc(-n2cc(CN3CCN(Cc4nccn4C)CC3)c(-c3cccc(F)c3)n2)c1	-2.2%	·	0.1%	·	·	·	0.0%	-3.6%
CSc1nc2ccc(NS(=O)(=O)c3ccc(Cl)s3)cc2s1	-190.6%	-7.1%	-20.2%	-3.2%	-1.7%	13.4%	0.0%	12.3%
Cc1cc(Cl)ccc1Oc1ncc(CN2CCN(c3ccccc3)CC2)s1	-7.8%	-8.5%	-12.9%	1.1%	-0.2%	-25.5%	-22.1%	-19.0%
CN(C(=O)c1ccco1)c1nc(CC(=O)Nc2ccccc2)cs1	-8.8%	-4.7%	-27.3%	24.9%	-15.7%	17.8µM*	4.1%	40.6%
CC(=O)Nc1ccc(S(=O)(=O)NCC(=O)Nc2ccc3c(c2)OCO3)cc1	·	·	5.8%	-3.6%	·	?	73.0%[activator]	-2.7%
COc1ccc(NC(=O)N(CCO)Cc2cc3c(C)cc(C)cc3[nH]c2=O)cc1	-13.4%	-4.6%	-1.8%	5.5%	10.1%	?	-3.7%	19.8%
CSc1ccccc1NC(=O)CN1C(=O)C2CC=CCC2C1=O (centres undefined)	·	·	-2.0%	-17.9%	·	?	12.4%	1.7%
CN(Cc1ccccc1)S(=O)(=O)c1ccc2[nH]cc(C(=O)NCC3CCCO3)c(=O)c2c1 (centres undefined)	-46.1%	-3.5%	4.2%	-18.6%[14.3 µM]	5.9%	0.8%	?	5.5%
O=C(Cn1c(O)c(/C=C2\C=Nc3ccccc32)sc1=O)Nc1ccc2c(c1)OCO2	-2.9%	-0.2%	?	16.7%	5.01µM*	-4.7%	·	-11.9%
Oc1ccc(Cl)cc1/C=N/c1nccs1	-7.0%	2.3%	-3.5%	-0.1%	-1.4%	-4.4%	-13.7%	-1.6%
Cc1ccc(C)c(CN2C(=O)c3ccccc3Sc3ccc(C(=O)NCCCOC(C)C)cc32)c1	·	-4.3%	·	?	?	·	-14.1%	·
Cc1ccc(CS(=O)(=O)CCC(=O)NCc2ccc3c(c2)OCO3)cc1	-2.4%	5.5%	-1.1%	1.2%	-2.1%	2.2%	-0.7%	-6.1%
CCc1ccccc1NC(=O)Cn1cc(S(=O)(=O)N2CCCC2)c(S(=O)(=O)N2CCCC2)c1	·	-2.2%	·	?	-1.9%	·	1.2%	·
CCNS(=O)(=O)c1ccc(C(=O)Nc2ccccc2)cc1	-3.2%	-0.9%	-1.6%	-4.2%	-2.2%	7.3%	25.6%	-1.6%
Cc1ccsc1C(=O)C1CCCN(Cc2cccn2-c2ccc(Cl)cn2)C1 (centres undefined)	-44.1%	·	-0.6%	·	·	·	?	-25.1%
COc1cc(C)nc(N2CCCC(C(=O)NCC(C)C)C2)n1 (centres undefined)	-2.6%	1.5%	3.3%	0.5%	11.9%	-0.9%[46.1 µM]	-22.8%	-6.0%
COc1ccc2cc(CN(Cc3ccco3)C(c3nnnn3C3CCCCC3)C(C)C)c(=O)[nH]c2c1 (centres undefined)	-41.2%	-12.8%	0.9%	7.6%	8.3%	0.4%	15.8µM*	-15.8%
COc1ccc(C(=O)N2CCN(S(=O)(=O)N3CCOCC3)CC2)cc1OC	-1.6%	5.5%	3.1%	1.1%	0.9%	24.2%	-10.4%	5.0%
Cc1ccc(NC(=O)Cc2nnc(SCC(=O)NC3=NCCS3)n2C)cc1	10.6%	·	-11.5%	?	·	2.0%[46.1 µM]	-7.7%	2.3%
COc1ccc(S(=O)(=O)n2nc(-c3ccc(Cl)cc3)cc2N)cc1	5.8%	·	0.3%	·	·	·	2.0%	3.1%
Cc1ccc2[nH]c(=O)c(C(c3nnnn3C3CCCC3)N3CCCc4ccccc43)cc2c1 (centres undefined)	3.2%	-10.3%	11.8%	?	?	5.8µM*	5.1%	13.7%
O=C(/C=C/c1ccco1)NCC1(c2ccccc2)CCCC1	-11.8%	-5.7%	-15.8%	-12.9%	-8.1%	4.8%	-28.0%	52.6%
CNC(=O)NCC12CC3CC(CC(C3)C1)C2	-8.7%	0.8%	-2.0%	-24.3%	1.2%	8.4%	1.6%	8.2%
Cc1ccc(S(=O)(=O)CCC(=O)Nc2cccc(S(=O)(=O)N3CCCCCC3)c2)cc1	·	·	-5.8%	?	·	-24.2%	-26.4%	23.3%
CC(=O)Nc1ccc(S(=O)(=O)Nc2nc3ccccc3nc2N2CCCC2)cc1	-33.8%	-7.5%	-3.3%	4.7%	14.8%	3.5%	7.1%	6.5%

Two successive compounds already listed, quoted:
SMILES	NS1 inh	Cruzain inh Det	SARS PLpro yeast	LASV entry inh	Cruzain inh noDet	MARV entry inh	2A StopGo	RE007 growth inh
CCOC(=O)C1CCCN(S(=O)(=O)c2c(C(=O)N3CCCCC3)c(C)n(C)c2C)C1 (centres undefined)	-3.3%	·	3.2%	-0.2%[46.1 µM]	·	24.0%[46.1 µM]	6.2%	-5.1%
CCc1cc(C(=O)Nc2sc(C)c(CC)c2C#N)no1	·	-10.8%	·	-2.1%[46.1 µM]	-6.7%	15.9%[46.1 µM]	32.9%[activator]	·

High-throughput results from PubChem.

Rows were taken by chance (roughly 4.7% active in at least one column).
